High-throughput results (PubChem)
Sfp inh = Sfp phosphopantetheinyl transferase inhibition; Potency, µM, without a hit: max response, negative = inhibition, actives largely listed as inhibitors; Biochemical Sfp PPTase activity, qHTS; Q9F4F7; actives 3.5% (n = 310,000); AID 1490; active = well fitted inhibition curve with a large enough effect; inconclusive = small, poorly fitted or top-dose-only effect, or another doubt; inactive = no such curve, though single readings can be large or run the other way;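 also: the enzyme is Sfp with the accession as filed and its product quenches rhodamine fluorescence; potency is read from the fitted curve at half-maximal effect; 0% = enzyme reaction without inhibitor and -100% = no enzyme wells; top concentration of the series not given in the record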
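Compounds were incubated with enzyme (final 15 nM) for 15 min at room temperature before substrate addition started the reaction. Fluorescence at 525 nm excitation, 598 nm emission was recorded immediately and after 30 minutes.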
Menin-MLL FL inh = inhibitors of human menin-MLL interaction, wild-type MLL peptide. Fluorescence polarization, fluorescein-MLL peptide displacement from menin. FP activity change, % at 61.4 µM. 290,000 tested, under 10 active; inconclusive = falling polarisation curve, or a change in total fluorescence; inactive = total fluorescence flat and polarisation flat or rising; no compound was filed as active; the % refers to the polarisation; negative = inhibition;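 also: % of control where 0% means no effect; inhibitors lower the polarisation; unlabelled MLL peptide was the positive control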
TRPV1 PAM = enhances activation of the human vanilloid receptor TRPV1; potentiation, % at 8.33 µM; actives 0.02% (n = 320,000); TRPV1-expressing cells, Fluo-8 calcium influx, capsaicin EC20 potentiation; host cell line not named in the record; control for the full effect not named in the record; Q8NER1; AID 540277; active means potentiation above 80%; inconclusive means 30% to 80%; inactive means below 30%; also: 0% is about no effect
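TRPV1-expressing cells were cultured overnight at 35.5C and loaded with Fluo-8 calcium dye for 40 to 90 min at room temperature. After a 10 s baseline, compound was added and calcium influx was read kinetically for 3 min (ex 480/em 520 nm).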
ClpP mod = qHTS Assay for Activators of ClpP. ATP-dependent Clp protease proteolytic subunit (Bacillus subtilis (strain 168)), P80244. Potency, µM (highest dose often 57.5 µM), for the others: at the top dose activity change, negative = active. AID 651965, 2013. purified B. subtilis ClpP, FRET peptide cleavage, 20 min. actives 1.9% (n = 340,000); active = well fitted falling curve with a large enough effect; inconclusive = small, poorly fitted or top-dose-only effect; inactive = no such curve, though single readings can be large or run the other way; also: potency is read from the fitted curve at half-maximal effect; the source files actives as falling curves though it sought activators and does not explain the sign; nearly all actives have a fitted effect of over 65% in size; many hits overshoot -100%
Target sequence (P80244 whole entry, looked up): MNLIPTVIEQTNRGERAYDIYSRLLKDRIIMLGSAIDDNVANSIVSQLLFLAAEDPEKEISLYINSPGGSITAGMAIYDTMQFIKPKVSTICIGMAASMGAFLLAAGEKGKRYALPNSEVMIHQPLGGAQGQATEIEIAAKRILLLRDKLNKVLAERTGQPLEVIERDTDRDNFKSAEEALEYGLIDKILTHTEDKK
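FRET quenching reversal measured ClpP activation: 10 microg/mL B. subtilis ClpP at pH 8 with the FRET-FV decapeptide, read at 430 nm after 320 nm excitation. The 20-min minus 0-min signal was scaled between DMSO/no-enzyme wells and ADEP (5.8 microM final).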
gsp antagonist = antagonizes gsp, the McCune-Albright syndrome mutation | AID 624288 | Potency, µM (series often up to 76.9 µM), for the others: at the top dose activity change, negative = inhibition, actives largely listed as inhibitors | actives 0.4% (n = 340,000) | gsp-mutant cells, cAMP HTRF, 30 min; control for the full effect not named in the record; active = falling curve of any shape with a large fitted effect; inconclusive = falling curve, mostly with a smaller effect; inactive = flat or rising curve; cell line not stated here;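 also: intracellular cAMP measured with PDE inhibitor Ro 20-1724 present during compound exposure; potency is read from the fitted curve at half-maximal effect; % is scaled to controls: 0 for no effect and ±100 for the full control effect; nearly all actives have a fitted effect of over 65% in size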
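Cells, 2000/well, grown 16–24 h in DMEM 10% FBS with 0.5 mg/ml G418, then compounds plus […] (300 uM addition stock), 30 min at 37C. cAMP read by HTRF (cAMP-d2 and anti-cAMP antibody-K in lysis buffer) after 30 min RT.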
gsp agonist = agonists of gsp mutant (McCune-Albright syndrome); gsp mutant cells, cAMP HTRF, 30 min; control for the full effect not named in the record; Potency, µM (top dose mostly 76.9 µM), without a hit: top-dose activation (cAMP increase), actives largely listed as activators; actives 0.13% (n = 340,000); AID 624287; active = well fitted activation curve with a large enough effect; inconclusive = small, poorly fitted or top-dose-only effect, or another doubt; inactive = no such curve, though single readings can be large or run the other way; cell line not stated here;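 also: phosphodiesterase inhibitor Ro 20-1724 added with compounds to block cAMP breakdown; potency is read from the fitted curve at half-maximal effect; nearly all actives have a fitted effect of over 60% in size; about a fifth of the inactives were tested at one dose only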
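Cells in DMEM/10% FBS with G418 were pretreated with compounds in DMSO plus […] (300 uM stock) for 30 min at 37C. cAMP was measured by HTRF (cAMP-d2 plus anti-cAMP antibody-K) after 30 min at room temperature.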
TRPML1 inh = inhibitors of human TRPML1 channel. TRPML1-inducible cells, Ca2+ dye fluorescence, FDSS; active compounds read low; inhibition of EC80 agonist-evoked calcium signal. activity change, negative = inhibition, % (no concentration beside the values). actives 0.02% (n = 390,000); in the data active means activity change below about -50%; inconclusive means about -30% to -50%; inactive means above about -30%;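 also: stimulus is agonist 54-4 at its EC80 concentration; % is scaled to controls: 0 for no effect and ±100 for the full control effect; compound concentration not given in the record; the text of the record puts the active cut at -80%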
Target sequence (Q9GZU1 whole entry, looked up): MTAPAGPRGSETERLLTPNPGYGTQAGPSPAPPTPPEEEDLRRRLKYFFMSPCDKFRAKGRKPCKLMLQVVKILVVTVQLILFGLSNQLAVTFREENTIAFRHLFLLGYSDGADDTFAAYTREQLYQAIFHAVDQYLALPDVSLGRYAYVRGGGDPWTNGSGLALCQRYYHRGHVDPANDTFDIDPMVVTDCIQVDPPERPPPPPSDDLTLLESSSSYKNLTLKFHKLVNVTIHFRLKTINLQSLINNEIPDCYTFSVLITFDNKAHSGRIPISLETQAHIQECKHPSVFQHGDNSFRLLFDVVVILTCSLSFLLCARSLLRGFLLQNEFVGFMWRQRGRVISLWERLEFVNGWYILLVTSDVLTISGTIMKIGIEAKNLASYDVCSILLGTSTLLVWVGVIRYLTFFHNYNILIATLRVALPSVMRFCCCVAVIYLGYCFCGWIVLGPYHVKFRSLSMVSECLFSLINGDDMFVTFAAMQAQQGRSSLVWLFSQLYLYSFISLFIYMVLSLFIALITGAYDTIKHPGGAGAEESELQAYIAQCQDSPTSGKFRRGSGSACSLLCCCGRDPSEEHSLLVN
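Tet-induced TRPML1-DL cells loaded with Ca8 no-wash calcium dye were read kinetically on FDSS. Compound addition was followed by EC80 agonist 54-4 (4 uM final); inhibition was read over 110 s.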
Numbers without * were called inactive; ? = inconclusive; · = no result given; [ ] = another dose, or the depositor's remark.

Compound	Sfp inh	Menin-MLL FL inh	TRPV1 PAM	ClpP mod	gsp antagonist	gsp agonist	TRPML1 inh
Cc1c(NC(=O)Nc2ccccc2Cl)sc(=S)n1C	-9%	1.1	19	-9.8%	14%	-39%[inhibitor]	-2
COc1ccccc1CN(C)C(=O)c1cc(-c2cccs2)nc2ccccc12	0%	5.2	4	·	40µM*	17%	-8
Cc1ccc(-n2nc3ccc(NC(=O)c4ccco4)cc3n2)cc1	-7%	2.9	-1	?	-5%	-32%[inhibitor]	-9
O=C(CN1CCN(S(=O)(=O)c2ccc(Br)cc2)CC1)Nc1ccc2c(c1)OCCO2	11%	0.8	1	1.1%	-2%	-4%	-3
COc1cccc(CNC(=O)C2CCC(=O)N(CCc3cccc(F)c3)C2)c1 (stereo not drawn)	12%	·	6	-2.9%	10%	14%[15.4 µM]	-6
CCC(C)N(C(=O)CSc1nc(C)nc2ccccc12)C1CCS(=O)(=O)C1 (stereo not drawn)	·	·	9	-0.6%	7%	-22%	-22
O=C(Nc1ccc(F)c(Cl)c1)Nc1cnccn1	6%	-2.0	-2	-4.2%	4%	14%	12
Cc1cccc(C)c1NC(=O)COC(=O)c1c2c(nc3ccccc13)/C(=C\c1ccc3c(c1)OCO3)CCC2	35%[activator]	?	-12	-0.4%	6%	-10%[15.4 µM]	-17
Cc1onc(-c2ccccc2Cl)c1C(=O)NC(=S)NCC(=O)c1ccccc1	2%	1.9	3	-2.6%	4%	0%	3
CCCCCCCNC(=O)COc1ccc2c(c1)C(=O)CC(C)(C)O2	-1%	-0.2	1	28µM*	-1%	0%	1
CCc1ccc(-c2cc3c(=O)n(CC(=O)N4CCCC4)nc(C)n3n2)cc1	5%	-0.1	5	0.7%	3%	4%	11
COc1ccccc1CC(=O)NCC(c1ccco1)N1CCCCC1 (stereo not drawn)	0%	-0.9	4	·	-3%	-19%[15.4 µM]	-5
CC(Sc1nnnn1C1CCCCC1)C(=O)O (stereo not drawn)	1%	-0.4	-7	·	4%	5%[15.4 µM]	-4
O=c1c2ccccc2nc2ccc(NCc3ccco3)nn12	40µM*	?	5	-25%	6%	?	17
CCCCCN1CC(O)=C(c2nc3ccccc3[nH]2)C1=N	17%	1.9	-17	-1.2%	-2%	-23%[15.4 µM]	15
CCC(=O)c1cn(CC(=O)Nc2c(C)cccc2C)c2ccccc12	4%	0.5	4	-2.9%	-11%	5%	-13
CC(C)c1ccc(NC2CCCN(C(=O)c3ccc(N4CCOCC4)cc3)C2)cc1 (stereo not drawn)	-3%	·	-17	0.8%	-6%	-4%[15.4 µM]	9
O=C(O)c1ccc(CS(=O)(=O)c2cccc(C(F)(F)F)c2)o1	24%	1.3	6	0.1%	0%	-5%	-9
O=C1c2ccccc2C(=O)N1CCc1nc2ccccc2c(=O)n1-c1ccccn1	15%	1.8	21	-0.9%	1%	-11%	-7
CCN1C(=O)c2cccc3c(S(=O)(=O)NCc4cccnc4)ccc1c23	8%	3.0	-4	?	-1%	7%	6
CC(C)CCNC(=O)C(=O)Nc1ccc2c(c1)N(S(=O)(=O)c1cccs1)CCC2	·	·	11	·	15%	-2%[15.4 µM]	68
COc1cc(C(=O)OC2CCOC2=O)c([N+](=O)[O-])cc1OC (stereo not drawn)	8%	-5.6	5	·	1%	5%	-3
O=C(NNC(=O)c1ccc(S(=O)(=O)N2CCOCC2)cc1)c1ccccc1	5%	-1.2	4	·	-25%	-3%[15.4 µM]	-1
COc1ccc2c(c1)C(=O)N(Cc1ccccc1)C(=O)C2(C)C	4%	7.8	16	·	-9%	-1%[15.4 µM]	6
CC(=O)Nc1ccc(C(=O)OCC(=O)/C(C#N)=C(\C)N)cc1	12%	-3.6	-3	·	·	11%[15.4 µM]	-8
Cn1nc(-c2ccccc2)c2cc(C(=O)O)sc21	13%	3.0	-13	·	?	-4%	-7
COc1cc(/C=N/NC(=O)COc2ccc(Cl)cc2)ccc1OS(=O)(=O)c1ccc(C)cc1	21%	3.1	4	-1.3%	-9%	-65%[inhibitor]	-4
O=C(c1ccco1)N1CCN(C(c2ccccc2Cl)c2nnnn2CC2CCCO2)CC1 (stereo not drawn)	2%	-0.2	5	-1.0%	0%	-33%[inhibitor]	33
CCCn1ncc([C@@H]2C[C@H]3CN(Cc4cccc(Cl)c4)C(=O)[C@]34CCCN24)c1C	3%	12	10	·	6%	-1%	-20
O=C(CN(Cc1ccc(F)cc1)C(=O)CNS(=O)(=O)c1ccccc1)NCc1ccco1	-10%	0.2	4	-2.9%	-1%	3%[15.4 µM]	-5
COc1ccccc1NC(=O)Nc1cccc(C(=O)O)c1	-12%	0.3	11	·	7%	-1%	2
O=C(/C=C/c1ccccc1)Nc1cccc(C(=O)N2CCCCC2)c1	·	·	·	-0.9%	2%	·	-5
Cc1ccc(-n2c(SCC(=O)N/N=C/c3c(C)nn(-c4ccccc4)c3C)nc3ccccc3c2=O)cc1	-5%	3.1	-1	-1.4%	-10%	-4%	-21
CN(C)CCCNC(=O)CC1C[C@H](C(=O)N2CCCCC2)[C@@]2(CCc3ccccc3)c3[nH]c4ccccc4c3CCN2C1=O (stereo partly drawn)	·	·	·	0.6%	9%	·	6
COc1ccccc1CNC(=S)NC1CCCC1	9%	31[activator]	13	-17%	11%	1%[15.4 µM]	-1
O=C(CSc1n[nH]c(-c2ccccc2F)n1)NCC(=O)Nc1ccc(F)c(F)c1F	-12%	2.2	6	·	-5%	4%	-4
O=C(O)c1cscc1-c1cccc2ccccc12	·	·	·	-2.7%	·	-9%	6
C=CCNC(=S)N/N=C/c1ccc(-c2ccc(Cl)cc2Cl)o1	·	·	·	·	-3%	-17%[15.4 µM]	21
NC(=O)C1CCN(C(=O)COCc2cc(-c3ccc4c(c3)OCO4)on2)CC1	12%	-3.1	1	-20%	14%	5%	-5
CCOC(=O)C1=C(C)N=C2SCCC(=O)N2C1c1sccc1C (stereo not drawn)	-19%	3.2	5	-16%	0%	-15%	5
CCCCn1nnnc1SCC(=O)NCc1ccco1	?	4.4	-9	0.5%	-2%	15%	2
O=[N+]([O-])c1ccc(N2CCOCC2)nc1	13%	-0.9	6	1.5%	7%	-1%	-1
CCN(CC)S(=O)(=O)c1ccc(NC(=O)c2cc(C(=O)OC)cc([N+](=O)[O-])c2)cc1	7%	-1.0	-2	1.2%	-4%	0%	-13
Cc1ccc[n+](CC(=O)c2ccc(-c3ccccc3)cc2)c1	-10%	1.2	-2	-2.4%	-8%	0%	19
Cc1cc(NC(=O)CSc2nc3ccccc3n2CC(=O)N2CCC(C)CC2)no1	-10%	4.8	3	-2.1%	0%	-6%	13
Cc1ccccc1C(=O)Nc1ccnc(-c2ccncc2)n1	17%	-4.7	?	0.9%	1%	-2%	21
CSc1nc(-c2ccc(Cl)cc2Cl)[nH]c(=O)c1C#N	33%	1.3	1	-0.9%	-15%	?	12
O=C(CCc1ccccc1)NNC(=O)CCc1ccccc1	5%	1.4	9	2.6%	4%	?	13
CC(C)(C)Cc1cc(N)on1	11%	6.5	10	-1.1%	1%	9%	19
Cc1ccc(C2(c3ccccc3)NC(=O)N(CC(=O)NC3CCS(=O)(=O)C3)C2=O)cc1C (stereo not drawn)	·	·	-2	1.0%	12%	?	15
Cn1c(-n2c(-c3ccco3)nc3ccccc3c2=O)nc2ccccc21	-1%	-1.0	4	-9.8%	-35%	-2%	-2
CSc1nnc(COc2ccc(C)cc2)n1N	-11%	7.6	-7	0.4%	5%	-12%	34
Cc1cc(C)cc(C(=O)N2CCCCC2)c1	·	·	·	·	-1%	-33%	-1
Cc1cc(C(=O)N(C)CC(=O)Nc2ccc(F)c(F)c2F)no1	3%	·	5	-1.1%	8%	4%	8
CCN1CCN(CC(=O)Nc2ccc(Cl)c(Cl)c2)C(=O)C1=O	15%	0.8	2	1.2%	-1%	22%	21
COc1ccccc1CN(C)CC(=O)Nc1cccc(S(=O)(=O)N2CCCCC2)c1	·	·	-3	-16%	-19%	6%	11
COc1cccc(CNC(=O)CCC(=O)n2ncc3cc(C)ccc32)c1OC	10%	-5.0	-24	0.7%	12%	?	-5
Cc1nc(N2CCCCC2)c(C#N)c(C)c1[N+](=O)[O-]	5%	9.0	-8	-4.6%	0%	-17%	-2
CNS(=O)(=O)c1cc(-c2nnc(N3CCOCC3)c3ccccc23)ccc1C	·	·	·	0.6%	-16%	?	-7
NS(=O)(=O)c1ccc(CCNC(=O)c2cc(-c3ccco3)nc3ccccc23)cc1	·	·	2	3.6%	-16%	?	5

Going on with the list:
Compound	Sfp inh	Menin-MLL FL inh	TRPV1 PAM	ClpP mod	gsp antagonist	gsp agonist	TRPML1 inh
CC(=O)c1cccc(NC(=O)CSC(=O)c2ccccc2)c1	-14%	2.2	-39	3.1%	21%	1%[15.4 µM]	34
Cc1[nH]c2ccccc2c1C(=O)CSc1nc2ccccc2c(=O)n1-c1ccccc1F	4%	8.0	6	·	·	·	·
Cc1cc(NC(=O)CSc2nc(N)c(NC(=O)c3ccc(F)c(F)c3)c(=O)[nH]2)no1	11%	·	-15	-1.3%	2%	3%[15.4 µM]	4
CN(c1ccccc1)S(=O)(=O)c1cccc(NC(=O)c2ccc3ncsc3c2)c1	-4%	9.5	-4	·	25µM*	-10%[15.4 µM]	-3
Cc1ccc(NCCC#N)cc1C	19%	1.8	-2	0.6%	-12%	-8%[15.4 µM]	14
N#C/C(=C/c1ccc(Br)o1)C(N)=O	7%	-1.3	0	0.4%	0%	?	-14
